RecA intein inh = blocks M. tuberculosis RecA intein splicing; inhibition, %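 (about 9 µM by stock and volumes)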; 290,000 compounds, 0.75% hits; P9WHJ3; AID 2221; cell-free RecA intein splicing, fluorescence; in the data active = inhibition above about 30%; inconclusive = no clear call, values can overlap the other calls;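 also: 0% = vehicle wells and 100% = reference inhibitor control wells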
Target sequence (P9WHJ3 whole entry, looked up): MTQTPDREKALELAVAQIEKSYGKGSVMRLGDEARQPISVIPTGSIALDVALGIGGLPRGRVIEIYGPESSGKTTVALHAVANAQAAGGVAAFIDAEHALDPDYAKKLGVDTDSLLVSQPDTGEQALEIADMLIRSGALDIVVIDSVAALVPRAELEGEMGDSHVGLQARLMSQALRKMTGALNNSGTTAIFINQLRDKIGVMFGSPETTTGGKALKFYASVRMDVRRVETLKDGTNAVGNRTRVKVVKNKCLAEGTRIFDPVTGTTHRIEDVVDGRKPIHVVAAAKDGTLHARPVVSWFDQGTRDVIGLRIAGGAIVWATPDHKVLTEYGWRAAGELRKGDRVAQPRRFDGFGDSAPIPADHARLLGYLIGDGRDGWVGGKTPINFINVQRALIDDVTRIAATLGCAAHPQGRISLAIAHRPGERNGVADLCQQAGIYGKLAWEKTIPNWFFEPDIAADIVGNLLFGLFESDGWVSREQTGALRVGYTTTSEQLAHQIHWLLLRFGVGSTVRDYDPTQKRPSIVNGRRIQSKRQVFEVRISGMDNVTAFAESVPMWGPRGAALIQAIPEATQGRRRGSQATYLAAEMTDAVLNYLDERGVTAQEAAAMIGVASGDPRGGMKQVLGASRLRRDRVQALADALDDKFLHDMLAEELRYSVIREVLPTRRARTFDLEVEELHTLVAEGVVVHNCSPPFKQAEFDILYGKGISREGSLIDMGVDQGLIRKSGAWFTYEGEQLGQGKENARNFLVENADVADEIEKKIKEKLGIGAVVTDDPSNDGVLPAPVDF
Arbovirus anti = antivirals against arbovirus infection; arbovirus infection cell-based antiviral screen; inhibition, % at 10 µM; 200,000 compounds, 0.37% hits;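 active = inhibition from about 30%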;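 also: bluetongue infection of BSR cells; cell survival read as ATP light after 72 h; 0% = infected wells without compound and 100% = uninfected wells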
Mtb betalactam = beta-lactam sensitization of Mtb H37Rv; M. tuberculosis H37Rv growth with meropenem, percent inhibition; hits of this screen are not shown here; inhibition, % at 25 µM; 330,000 compounds, 0.27% hits;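 active = about 74% or more and at least 40 points above the plate without the antibiotic, then above 30% in a dose series; inconclusive = first-round hits that could not be retested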;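 also: growth measured after seven days incubation then overnight dye step; 0% = bacteria only wells and 100% = bacteria with antibiotic; twin plates without the antibiotic show which effects depend on it; some results filed as inactive read as strong as hits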
Mtb H37Rv = M. tuberculosis H37Rv growth inhibitors, H37Rv strain (AID 1626) | M. tuberculosis H37Rv growth inhibition; higher % means a stronger effect | one-dose inhibition, % at 10 µM; IC50 in µM for titrated hits | 220,000 compounds, 0.95% hits;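 active = confirmed in a dose series; inconclusive = inhibition above 80% but not taken into the dose series; inactive = below 80% or under 30% at every dose of the series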;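 also: bacteria incubated seven days before Alamar blue readout; 0% = bacteria only wells and 100% = bacteria with antibiotic wells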
YopH PTP inh = blocks Yersinia enterocolitica YopH tyrosine phosphatase | fluorescence Ex485/Em525 | inhibition, %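 (about 10 µM by stock and volumes)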 | 140,000 compounds, 0.16% hits | AID 898;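 active = inhibition of 50% or more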;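 also: controls were vehicle for no effect and minimum signal wells for full effect; inactives centre near -20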
Arbovirus anti repeat = further read-out of Arbovirus anti, marked with its call; inhibition, %; measured here: 10K subset replicate screen; many hits read low in the repeat;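 first of two repeat runs on a subset; 0% = infected and 100% = uninfected wells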
* hit, by the source's call; ? = inconclusive; / = not tested or not shown. Only part of the results is shown; count on the stated rates, not on these rows.

SMILES	RecA intein inh	Arbovirus anti	Mtb betalactam	Mtb H37Rv	YopH PTP inh	others
CC(=NCc1ccco1)C1=C(O)c2ccccc2C1=O	7.0	-21	15	50%	-24
C=CCn1c(SCC(=O)NC2CC2)nnc1-c1ccccn1	0.7	/	2	/	/
CC(=O)C1=C(O)C(=O)N(CC#N)C1c1cccs1 (stereo not given)	0.2	-2	3	7%	-33
Cn1c(SCC(=O)c2ccccc2)nnc1-c1cccnc1	6.9	1	6	2%	-23
Clc1ccc(OCCSc2nnnn2C2CCCCC2)cc1	2.1	-5	-7	-8%	-12
Cc1cc(C)c(C(=O)CSc2nnc(-c3cccnc3)n2C)c(C)c1	0.0	13	45	-1%	-6
CCOc1ccc(CNC(=O)CCS(=O)(=O)Cc2ccc(C)cc2)cc1OC	-0.3	6	4	5%	/
CNc1cccccc1=S	1.0	4	99	-5%	10
CCCCN(C(=O)c1cccc(S(=O)(=O)N2CCN(C)CC2)c1)c1c(N)n(CCC)c(=O)[nH]c1=O	0.9	/	-8	/	/
O=C(CCc1nc2ccccc2s1)Nc1cccnc1	0.8	18	2	-2%	/
O=c1c(Cc2ccccc2)c(O)ccn1Cc1ccco1	-0.3	1	-1	4%	/
CCN1C(=O)CC(N2CCC(C(=O)OC)CC2)C1=O (stereo not given)	-1.2	10	-7	6%	-9
CCN(CC)S(=O)(=O)c1cc(NC(=O)COC(=O)CCc2nc3ccccc3s2)ccc1C	0.8	-3	14	0%	-2
O=[N+]([O-])c1ccc(OCCCCCN2CCOCC2)cc1	3.5	/	1	/	/
C/C(=N\NC(=O)Cc1ccc(F)cc1)c1ccc(O)cc1	0.3	12	25	-1%	/
COc1cccc(/C=C/C(=O)OCC(=O)NCCc2ccccc2)c1	-3.8	4	10	-5%	/
COc1ccc(S(=O)(=O)NCCc2c[nH]c3ccc(C)cc23)cc1	1.6	/	-1	/	/
CC1(C)NC(=O)N(CCOCCOc2cccc(Oc3ccccc3)c2)C1=O	-0.3	3	-1	6%	-3
COCCNC(=S)NNC(=O)c1cc(C2CC2)nc2ccccc12	0.2	/	-3	/	/
O=c1c2cc(Br)ccc2[nH]c(=S)n1-c1ccccc1	-1.2	-1	-7	-10%	/
C#CCNC(=O)C1=C[C@@H](c2ccccc2)[C@H](CCCO)[C@@H](OCC)O1	-0.3	2	-8	-9%	/
Cc1cccc(N2CCN(C(=S)c3ccc([N+](=O)[O-])cc3)CC2)c1	1.9	-1	2	4%	-13
Cc1noc(C)c1S(=O)(=O)N(CC(=O)NC1CCCC1)c1ccc(C(C)C)cc1	-1.4	/	0	/	/
CNC(=O)CSc1nc2ccccc2c(=O)n1C1CCCCC1	2.8	/	-1	/	/
O=C(CN1CCOc2ccccc21)NCc1ccc(Cl)cc1	0.0	-9	4	/	-25	Arbovirus anti repeat=-2
Other entries follow.
SMILES	RecA intein inh	Arbovirus anti	Mtb betalactam	Mtb H37Rv	YopH PTP inh	others
Cc1cc(C)cc(C(=O)NCC(=O)OCC(=O)N(C)c2ccccc2)c1	-2.6	3	0	-1%	/
Cc1cccc(/C=N/NC(=O)c2cc(C3CC3)nc3ccccc23)n1	-0.9	/	?	/	/
Cc1ccc(C)c(N2CCN(c3ccc(N4C(=O)COCC4=O)cc3[N+](=O)[O-])CC2)c1	-2.0	12	3	2%	-7
c1ccc(-c2nc(-c3ccco3)n3ccccc23)cc1	-27	-3	-3	-4%	2
COc1ccccc1CNCC(=O)Nc1cc(S(=O)(=O)N2CCCCCC2)ccc1Cl	4.5	/	-5	0%	/
CCN(C(=O)CN1C(=O)c2ccccc2S1(=O)=O)C1CCCCC1	-0.9	/	-3	/	/
O=C(Nc1ccc(F)cc1F)N1CCC(c2nc3ccccc3o2)CC1	3.6	10	4	5%	/
COc1ccc(O)c(C(=O)c2cc(C#N)c(=O)n(-c3c(C)n(C)n(-c4ccccc4)c3=O)c2)c1	-2.0	2	-1	-1%	-34
COC(=O)CCc1c(C)[nH]c(C(=O)OCc2ccccc2)c1C	2.3	-1	96	6%	-4
O=C(CSc1n[nH]c(=O)[nH]c1=O)Nc1cccc(S(=O)(=O)N2CCOCC2)c1	3.6	9	1	2%	/
Cc1cc(=O)oc2c3c(cc(OCC(=O)N[C@@H](Cc4ccccc4)C(=O)O)c12)OC(C)(C)CC3	-0.3	/	0	/	/
O=C(O)c1ccc(-n2nnnc2SCc2cccc(Br)c2)cc1	0.9	/	-2	/	/
COc1ccc(/C=N/NC(=O)CSc2nnc(CCCc3ccc(OC)c(C)c3)o2)cc1	-1.0	-4	55	11%	13
COc1ccc(-c2nc(=S)n3ccsc3n2)cc1OC	-4.9	0	1	4%	/
CCN(CC)CC#Cc1ccc(C)cc1	0.2	/	-10	-2%	/
CCn1c(-c2cc(-c3ccc(C)c(C)c3)nc3ccccc23)n[nH]c1=S	9.3	-11	-6	2%	/
O=C(Nc1ccc(F)cc1)N1CCN(c2ccc(F)cc2)CC1	-0.3	-1	-2	-1%	/
COc1ccc(NC(=S)Nc2cccc3ccccc23)cc1OC	9.0	/	-21	/	/
COc1ccccc1CNC(=O)COC(=O)Cc1cccs1	2.5	4	4	4%	/
Cc1occc1C(=O)N/N=C/c1ccc(N(C)C)cc1	-4.0	/	-9	-3%	/
O=C(CN1c2ccccc2S(=O)(=O)c2ccccc21)NCc1ccc(F)cc1	-1.5	/	-4	/	/
CC1(C)C(=O)Nc2ccccc2N1C(=O)c1ccc([N+](=O)[O-])cc1	3.2	/	5	/	/
CCN1CCN(c2nc(-c3ccncc3)nc3ccccc23)CC1	-0.4	7	-1	/	-6
OC(COc1c(F)cc(Br)cc1F)CN1CCN(c2ccc(F)cc2)CC1 (stereo not given)	4.3	19	3	/	-30
C=CCn1cc(C(=O)NCCOC)c(=O)c2cc(S(=O)(=O)N(CC)CC)ccc21	-3.3	3	-25	-8%	22
More results.
SMILES	RecA intein inh	Arbovirus anti	Mtb betalactam	Mtb H37Rv	YopH PTP inh	others
COc1ccc(NC(=O)C2CCCN(S(=O)(=O)c3ccc4c(c3)oc(=O)n4C)C2)cc1OC (stereo not given)	0.2	1	2	2%	-5
CCOc1ccc(CCNC(=O)C(CCC(N)=O)NC(=O)OCc2ccccc2)cc1OCC (stereo not given)	0.9	3	-2	3%	/
COc1cc(Cl)c(C)cc1NC(=O)CSc1cc(Cl)ccc1Cl	0.2	3	1	-11%	-29
CC(C)(C)C(=O)NCCCc1nc2ccccc2n1CCCOc1ccc(Cl)cc1	4.2	-21	56	11%	-21
COc1ccc2nc(SCC(=O)C(C)(C)C)[nH]c2c1	2.5	/	-18	-7%	/
CCCc1cc(=O)[nH]c(SCC(=O)NCCCC(=O)OCC)n1	-1.1	2	2	-7%	-18
COc1ccccc1N1CCN(C(=O)CNS(=O)(=O)c2ccc(Br)s2)CC1	1.0	/	-4	/	/
COc1cc(CCN2C(=O)N[C@@H](c3cccc(C(F)(F)F)c3)C(C(C)=O)=C2C)cc(OC)c1OC	0.6	-8	-10	/	2
CC(=O)c1ccc(NC(=O)CCn2c(=O)oc3ccccc32)cc1	-0.1	-8	?	2%	-53
O=C(CN1CCN(C2CCCCC2)CC1)Nc1ccccc1-c1ccccc1	-0.2	-4	-2	/	-24
COc1ccc(-c2cc(C(=O)OCC(=O)c3c(N)n(C)c(=O)n(C)c3=O)c3ccccc3n2)cc1	-17	9	20	0%	/
CC(Cc1ccsc1)NC(=O)CCc1nnc(COc2ccccc2)o1 (stereo not given)	/	7	-2	1%	/
CCN1/C(=C/c2ccc3cc(C)ccc3[n+]2C)Sc2ccc3sccc3c21	/	-31	/	?	/
NNC(=O)COc1ccc(C(F)(F)F)cc1	-0.4	6	30	4%	/
CCOC(=O)c1[nH]c2ccc(OC)cc2c1NC(=O)c1cccc(OC)c1	2.2	-3	-6	10%	-26
Cc1ccnc(SCC(=O)Nc2c(C)n(C)n(-c3ccccc3)c2=O)n1	-4.3	5	-6	-10%	2
CCN1CCN(c2ccc([N+](=O)[O-])c(Sc3nc4ccccc4[nH]3)c2)CC1	1.8	14	12	7%	-17
CN(Cc1ccccc1)c1ncnc2c1cnn2-c1ccccc1	/	10	84	7%	-46
O=C1NC(=O)C(=Cc2cc(Cl)ccc2OCc2ccc(C(=O)O)cc2)C(=O)N1	16	-2	9	-6%	/
O=C(CCN1N=C(c2ccccc2)CCC1=O)NCC1CCCO1 (stereo not given)	-6.9	/	4	/	/
COc1cccc(N(C(=O)Cn2nnc(-c3ccc(C)cc3)n2)C(C(=O)NC(C)(C)C)c2c[nH]c3ccccc23)c1 (stereo not given)	5.5	-18	-11	-1%	-45
CCOC(=O)C(C)N1N=C(/C=C/c2ccc(OC)cc2)CCC1=O (stereo not given)	1.1	0	1	3%	2
Cc1cc(C)c2c(n1)SCC(=O)N2CC(=O)Nc1cccc(Cl)c1	1.7	/	36	/	/
CCOC(=O)c1cc(C)sc1NC(=O)CN1CCN(C(=O)c2ccco2)CC1	1.4	/	4	/	/
CN(c1ccc(C(=O)N/N=C/c2cccc([N+](=O)[O-])c2)cc1)S(=O)(=O)c1ccccc1	1.9	/	-10	/	/
(next part)
SMILES	RecA intein inh	Arbovirus anti	Mtb betalactam	Mtb H37Rv	YopH PTP inh	others
CCOC(=O)c1c(C)c2c(=O)[nH]cnc2n1-c1ccccc1	-2.2	/	1	/	/
O=S(=O)(NCCNc1nccc(C(F)(F)F)n1)c1ccccc1	1.3	/	-3	2%	/
CC(C)CN(C(=O)COC(=O)c1ccc2ccccc2n1)C1CCS(=O)(=O)C1 (stereo not given)	-1.2	11	10	-6%	/
c1ccc(-c2n[nH]c3c2CCC3)cc1	-0.7	3	/	2%	-12
O=C(CCCn1c(=S)[nH]c2ccccc2c1=O)N1CCN(c2cccc(Cl)c2)CC1	-1.7	4	2	-2%	-3
Cc1ccc(CCCNC(=O)C2CCC(=O)N(Cc3cccc(F)c3)C2)cc1 (stereo not given)	1.1	/	-15	/	/
CCN(CC)S(=O)(=O)c1ccc2oc(C(=O)N3CCOCC3)c(C)c2c1	-1.1	6	-6	-8%	-29	Arbovirus anti repeat=4
COc1ccc(S(=O)(=O)N2CCC(C(=O)NCc3ccco3)CC2)cc1	-1.5	13	-3	-5%	-21
O=C(CN1CCOCC1)Nc1ccc(C2CCCCC2)cc1	0.7	5	3	-5%	-30
COc1ccc(CNC(=O)CSc2nc3ccc(C)cc3[nH]2)cc1OC	4.8	/	-6	/	/
CN(C)c1ccnc(Nc2ccccc2)c1C#N	/	-2	-5	1%	/
COc1ccc(OC)c(CCNC(=O)CCc2nnc3ccc(N4CCOCC4)nn23)c1	-0.3	/	-9	/	/
c1ncn(C23CC4CC(CC(C4)C2)C3)n1	0.5	4	-4	-9%	-29
CCOC(=O)C1CCN(C(=O)c2ccc3snnc3c2)CC1	-1.4	6	-18	-6%	11
CN(C)CCn1c2c(c(SCC(=O)N3CCc4ccccc43)nc1=O)CCCC2	1.8	/	-1	/	/
CCOCCCNC(=S)N1CCN(c2nc(-c3ccccc3)cs2)CC1	-1.3	/	8	/	/
CCN(Cc1ccccc1)C(=O)CCNS(=O)(=O)c1cc(Br)cnc1N	-3.3	/	-8	/	/
Cc1ccccc1C(=O)NNS(=O)(=O)c1cccc([N+](=O)[O-])c1	-0.4	/	7	/	/
CCOc1ccc(NC(=O)C2CCN(S(=O)(=O)c3ccc4c(c3)CC(C)N4C(C)=O)CC2)cc1 (stereo not given)	-0.9	/	6	/	/
Cc1cc2c(cc1C)[n+](C)cn2CC(O)COCc1ccccc1 (stereo not given)	-4.7	5	-9	-10%	-19
COc1ccnc2c1c(=O)n(Cc1cccc(F)c1)c(=O)n2C	4.4	/	-6	/	/
Nc1nonc1C(=O)NCCN=Cc1ccccc1O	-0.3	/	-9	-7%	-32
Cc1cc(=O)oc2cc(OCC(=O)N3CCC(C(=O)O)(c4ccccc4)CC3)ccc12	0.6	/	-6	/	/
COc1ccc(OCCOCCN2CCOCC2)cc1	-0.8	-3	3	1%	1
COc1ccc(C(C)=O)cc1COC(=O)C1CC(=O)N(Cc2ccccc2)C1 (stereo not given)	2.8	/	7	/	/
CN(CC(=O)Nc1ccc(Cl)c(C(F)(F)F)c1)C(=O)C1(c2ccccc2)CC1	7.1	/	-23	/	/

Compound activity as filed in PubChem.
